# Compound activity as filed in PubChem BioAssay.
# Rango-impB inh = Rango-importin beta binding inhibition. Rango CFP/YFP FRET sensor + importin beta, 45 min. Potency, µM (top dose mostly 92.2 µM), for the others: top-dose inhibition of complex formation. 340,000 tested, 0.031% active. AID 540263; active = rising FRET ratio curve, often small or poorly fitted; inconclusive = mostly compound fluorescence or quenching in the first reads; inactive = flat curves in all reads;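 further: potency means the concentration at half of the fitted maximal effect; 0% = DMSO wells and 100% = buffer wells lacking importin beta; nearly all actives have a fitted effect of over 15% in size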
# Target sequence (Q14974 whole entry, looked up): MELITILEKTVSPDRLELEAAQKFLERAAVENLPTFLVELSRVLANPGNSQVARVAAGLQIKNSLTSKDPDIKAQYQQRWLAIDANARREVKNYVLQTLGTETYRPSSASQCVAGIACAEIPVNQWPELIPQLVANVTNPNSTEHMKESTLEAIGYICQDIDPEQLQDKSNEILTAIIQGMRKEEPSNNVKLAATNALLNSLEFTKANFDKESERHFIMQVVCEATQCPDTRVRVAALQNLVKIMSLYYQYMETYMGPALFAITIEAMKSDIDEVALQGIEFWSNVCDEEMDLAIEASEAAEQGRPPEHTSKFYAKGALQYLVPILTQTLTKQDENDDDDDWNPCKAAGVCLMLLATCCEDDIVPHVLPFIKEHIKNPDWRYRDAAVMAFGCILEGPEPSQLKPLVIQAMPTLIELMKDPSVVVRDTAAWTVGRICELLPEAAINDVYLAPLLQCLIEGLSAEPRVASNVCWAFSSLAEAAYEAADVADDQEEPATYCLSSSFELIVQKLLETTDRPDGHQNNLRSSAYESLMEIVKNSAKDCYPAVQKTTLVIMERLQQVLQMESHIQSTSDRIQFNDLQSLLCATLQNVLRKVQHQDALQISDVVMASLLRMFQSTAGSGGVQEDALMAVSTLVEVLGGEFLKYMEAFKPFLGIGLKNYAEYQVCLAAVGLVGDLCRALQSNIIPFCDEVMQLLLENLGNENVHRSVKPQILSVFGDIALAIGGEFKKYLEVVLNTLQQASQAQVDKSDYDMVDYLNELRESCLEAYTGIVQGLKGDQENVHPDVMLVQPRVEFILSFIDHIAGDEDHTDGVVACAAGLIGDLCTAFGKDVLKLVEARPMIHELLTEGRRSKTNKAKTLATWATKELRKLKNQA
#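 FRET biosensor (snurportin 1 IBB flanked by EYFP and cerulean), 50 nM, with compound 5 min, then 0.125 microM importin beta in PBS, 1 mM DTT, 0.02% Tween-20, 0.1% BSA. CFP/YFP ratio read after 45 min at room temperature; pre-read flags interference.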
# GLA inh pH 4.5 = blocks human alpha-galactosidase A at pH 4.5; P06280; purified enzyme, 4-MU-alpha-Gal fluorescence, pH 4.5; activity change, negative = inhibition, % at 105 µM; 230,000 tested, under 10 active; AID 1467; inconclusive = small, poorly fitted or top-dose-only inhibition, or a rising curve; inactive = flat fitted curve, though single readings scatter; no compound was filed as active;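 further: 0% = full activity with enzyme and -100% = basal without enzyme; dose as in the result columns while the protocol names 77 µM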
# miR-21 reporter = raises the signal of a miR-21 reporter. 340,000 tested, under 10 active. Potency, µM (doses to about 38.3 µM), for the others: top-dose reporter change, positive = more light. HeLa miR-21 FLuc reporter, luciferase, 48 h. AID 2288; active = well fitted rising curve with a large enough effect; inconclusive = small, poorly fitted or top-dose-only effect; inactive = no such curve, though single readings can be large or run the other way;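 further: % of control where 0% means no effect; miR-21 action dims this reporter so a rising signal means less miR-21 action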
#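 HeLa miR-21-FLuc reporter line, endogenous miR-21; 2000 cells/well in DMEM/10% FBS; compound titration up to ~40uM final, 48 h, 37 degree Celsius; luciferase detection reagent, 15 min lysis, CCD luminescence.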
# Rango release inh = prevents RanGTP from dissociating the Rango-importin beta complex | O95149+P62826 | Biochemical FRET Rango-importin beta, RanGTP-induced dissociation | Potency, µM (series often up to 46.1 µM), without a hit: at the highest dose activity change, negative = inhibition | 340,000 tested, 0.071% active; active means falling FRET ratio curve, often poorly fitted, with flat reads before Ran was added; inconclusive means other falling curves, or compound fluorescence or quenching; inactive means flat or rising ratio curve;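 further: potency means the concentration at half of the fitted maximal effect; % of control where 0% means no effect; nearly all actives have a fitted effect of over 45% in size; -100% = wells without RanGTP and RCC1; the record marks most hits as doubtful in a second field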
#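 FRET read at 45 min, room temperature: inhibitors block the CFP/YFP signal rise when RanGTP (0.6 uM Ran, 2 mM GTP, 0.2 uM RCC1) frees Rango (0.1 uM) from importin beta (0.25 uM). Pre-read after 5 min compound exposure flags interference.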
# * hit, by the source's call; ? = inconclusive; . = no result given; & = joins results of further samples. An excerpt; the hit share may differ from the screen's.
SMILES,Rango-impB inh,GLA inh pH 4.5,miR-21 reporter,Rango release inh
Cc1oc(/C=N/NC(=O)CN(c2ccccc2Br)S(C)(=O)=O)cc1Br,-7.1%,-23,-5%,?
Cc1c(Br)c([N+](=O)[O-])nn1CC(=O)NCc1ccccc1,-5.5%,-26,-6%,42%
CC(=O)Nc1cccc(C(=O)OC(C(=O)c2ccc(C)cc2)c2ccccc2)c1 (centres undefined),1.6%,1,4%,-5%
O=C1CC(N2CCN(C(c3ccccc3)c3ccccc3)CC2)C(=O)N1Cc1ccc(N2CCCC2=O)cc1 (centres undefined),-2.4%,-14,4%,2%
O=C(NCCN1CCN(c2ccccc2)CC1)C1CCN(S(=O)(=O)N2CCOCC2)CC1,-3.4%,-2,0%,3%
Cc1ccccc1OCc1ccc(C(=O)N2CC(C)OC(C)C2)o1 (centres undefined),-2.8%,.,2%,17%
Cc1ccc(CN(C)C(=O)C2CCCN2C(=O)c2cccs2)o1 (centres undefined),-2.8%,2,-2%,3%
COc1cc2c(-c3ccc4c(c3)OCO4)c(-c3ccsc3)oc(=O)c2cc1OC,-1.8%,.,.,5%
CCOP(=O)(CN(CC)C(=O)c1ccccc1Br)OCC,-0.1%,1,-3%,-1%
Cc1c(Cl)cnc(NC(=O)CSc2nncs2)c1Cl,-1.1%,5,-15%,-12%
O=C(Cc1ccc(-c2ccccc2)cc1)NC1CCCC1,-1.9%,-2,1%,-1%
CCc1ccc(NC(=O)N(C2CCCCC2)C(C)c2cccnc2)cc1 (centres undefined),-0.1%,14,-51%,-1%
CC(C)Cn1cnc2c(c1=O)c1nc3ccccc3nc1n2Cc1ccc2c(c1)OCO2,.,-2,0%,.
CC1=CC(=O)C=C(C)C1=NOC(=O)c1cccc([N+](=O)[O-])c1,-1.7%,-7,2%,-3%
N#Cc1ccc(OCC(=O)NC2=NCCS2)cc1,?,4,-14%,-4%
Cc1cc(C)cc(NC(=O)c2cccnc2)c1,5.9%,.,-8%,18%
CCCc1cc(=O)[nH]c(SCC(=O)N2CCOCC2)n1,2.8%,.,1%,1%
O=C(COc1ccccc1)NCCS(=O)(=O)N1CCN(c2ccccc2)CC1,-0.8%,.,.,-7%
Cc1ccc(NC2=CC(=O)CC(C)(C)C2)c(N)c1,-0.7%,-12,-30%,32%
CC(=O)N1CCOc2ccc(S(=O)(=O)NC[C@H]3O[C@@H](n4cnc5c(N)ncnc54)[C@H](O)[C@@H]3O)cc21,?,.,.,48%
COc1cc(CCc2ccccc2)c(C(=O)O)c(O)c1CC=C(C)C,0.0%,.,.,13%
Nc1cc(-c2ccc(Cl)cc2)nn1S(=O)(=O)c1ccc(Cl)cc1,1.8%,-11,-5%,77%
N#Cc1cn(N2CCCCC2)c(=O)[nH]c1=O,-0.1%,.,-13%,-14%
COc1cc(C(=O)NCC(=O)N/N=C/c2cccs2)cc(OC)c1OC,-0.8%,2,1%,1%
COc1ccc(CCNC(=O)CSc2nnc(CNC(=O)c3cc(OC)c(OC)c(OC)c3)o2)cc1OC,1.9%,.,6%,4%
CC(=O)Nc1ccc(NC(=O)CN(C)CCC#N)cc1,-0.5%,5,2%,-10%
CCc1ccccc1NC(=O)Nc1ccsc1C(=O)OC,2.4%,.,-4%,-2%
CC1(C)CC2(CC(c3cccs3)c3cc(Cl)c(O)cc3O2)NC(=S)N1 (centres undefined),0.6%,7,24%,0%
CCC(C)NCC(O)(c1ccc(Cl)cc1)c1ccc(Cl)cc1 (centres undefined),-0.8%,-7,9%,2%
O=C(c1cnsn1)N1CCN(c2ccccn2)CC1,-1.9%,6,-1%,-6%
COc1ccccc1/C=C/C=C1\Oc2c(ccc(O)c2CN(C)C)C1=O,?,-28,-19%,?
CC1=C(C(=O)Nc2ccc(Cl)cc2)C(c2ccncc2)C(C#N)=C(SCC(N)=O)N1 (centres undefined),0.8%,1,6%,-1%
COCCN1CCn2c(nc3cc(NC(C)=O)ccc32)C1,1.1%,.,-9%,0%
CCc1c(C)[nH]n(-c2ccc(Oc3ccccc3)c(S(=O)(=O)O)c2)c1=O,4.6%,5,-2%,-5%
O=[N+]([O-])c1ccccc1/C=N/NC1=NCCN1,2.7%,.,.,6%
CCOc1ccccc1CNC(=O)c1ccc2nc(N3CCOCC3)sc2c1,2.6%,.,8%,15%
Cc1c(NC(=O)C(C)OC(=O)[C@@H](NC(=O)c2ccccc2)C(C)C)c(=O)n(-c2ccccc2)n1C (some centres undefined),0.1%,5,-3%,1%
C/C(=C\C(=O)c1ccccc1)Nc1cccc(O)c1,0.4%,8,-63%,-18%
COc1cc(CCCN2C(=O)C(=O)NC[C@@H]2CC2CCCCC2)cc(OC)c1OC,1.3%,.,.,-6%
O=C(Nc1ccc(F)cc1)Nc1ccc(N2CCOCC2)c2nonc12,-0.8%,2,-50%,1%
CNC(=S)/N=C(\Nc1ccc(C)cc1)c1ccccc1,0.0%,5,-5%,5%
Oc1ccccc1C=NN=Cc1ccccc1Cl,10%,.,.,12%
Cc1ccc(NC(=O)c2ccccc2Cl)cc1-n1cnnn1,-0.3%,-3,2%,0%
Cn1ncc2c(NNC(=O)c3ccccc3Cl)ncnc21,0.4%,6,-7%,12%
Cc1cc(C)nc(NC2=NCC(=O)N2CCc2c[nH]c3ccccc23)n1,0.8%,-13,14%,-13%
Cc1cc(NC(=O)CCC(=O)N(Cc2cccs2)C(C)(C)C(=O)NC2CCCCC2)no1,0.5%,.,-1%,31%
Cc1cc(/C(O)=C2\C(=O)C(=O)N(CCN(C)C)C2c2ccncc2)ccc1OCc1ccccc1 (centres undefined),1.8%,5,0%,3%
COc1ccc(C(=S)N2CCOCC2)cc1OS(=O)(=O)c1ccccc1[N+](=O)[O-],1.9%,-3,-2%,-8%
Cc1ccc(-c2nnc(NC3CCCCC3)c3ccccc23)cc1S(=O)(=O)N1CCN(C)CC1,-0.1%,-5,0%,1%
CCOC(=O)c1c(C)[nH]c(C(=O)COC(=O)c2ccc(O)cc2O)c1C,?,0,-21%,-2%
# Later entries.
SMILES,Rango-impB inh,GLA inh pH 4.5,miR-21 reporter,Rango release inh
CC(C)C(NC(=O)c1ccc(F)cc1)C(=O)N1CCC1 (centres undefined),-0.5%,.,.,-2%
CCn1ncc([N+](=O)[O-])c1C(=O)Nc1c(C)cccc1C,-4.0%,.,1%,-7%
O=C(CNS(=O)(=O)c1ccccc1)NCC(=O)OCc1ccc(C(=O)c2ccccc2)cc1,0.2%,-3,-3%,9%
COc1ccc(N2CCN(C(=O)c3cc([N+](=O)[O-])ccc3N3CCN(CCO)CC3)CC2)cc1,-1.5%,.,3%,-1%
CCc1cccc(CC)c1NC(=O)CNCc1cccs1,-0.4%,.,-2%,-13%
NC1=NCC(O)=C1c1nc2ccccc2[nH]1,1.0%,6,3%,-20%
Cc1ccc(NC(=O)c2cc(=O)c3ccccc3o2)cc1,0.2%,-2,-22%,1%
Cc1cc([N+](=O)[O-])c(-c2ccc(/C=N/n3cnnc3)o2)cc1Cl,-0.3%,0,-19%,1%
Cc1ccc(-c2cc(C(=O)Nc3ccc(S(=O)(=O)Nc4nc(C)cc(C)n4)cc3)c3ccccc3n2)cc1,-0.2%,-12,2%,11%
C[C@H]1CCC[C@]2(O[C@@H](CCO)C[C@H](O)[C@H]2O)O1,-4.2%,-1,-4%,-2%

# Five records drawn at random from the list so far:
SMILES,Rango-impB inh,GLA inh pH 4.5,miR-21 reporter,Rango release inh
C[C@H]1CCC[C@]2(O[C@@H](CCO)C[C@H](O)[C@H]2O)O1,-4.2%,-1,-4%,-2%
O=C(CNS(=O)(=O)c1ccccc1)NCC(=O)OCc1ccc(C(=O)c2ccccc2)cc1,0.2%,-3,-3%,9%
Cc1cc([N+](=O)[O-])c(-c2ccc(/C=N/n3cnnc3)o2)cc1Cl,-0.3%,0,-19%,1%
CCn1ncc([N+](=O)[O-])c1C(=O)Nc1c(C)cccc1C,-4.0%,.,1%,-7%
COc1ccc(N2CCN(C(=O)c3cc([N+](=O)[O-])ccc3N3CCN(CCO)CC3)CC2)cc1,-1.5%,.,3%,-1%

# Further results follow.
SMILES,Rango-impB inh,GLA inh pH 4.5,miR-21 reporter,Rango release inh
COCCn1c(N)c(N(Cc2ccccc2)C(=O)Cc2c(Cl)cccc2Cl)c(=O)[nH]c1=O,-6.1%,-4,-4%,-1%
COc1cc(C(=O)NCC(c2cccnc2)N2CCN(c3ccc(F)cc3)CC2)cc(OC)c1OC (centres undefined),-1.5%,-4,0%&23%,1%
O=C(Nc1ccc(-c2cn3ccccc3n2)cc1)c1cccs1,-2.2%,-6,-50%,15%
COc1cccc(-c2nc3ccc(O)cc3c(=O)o2)c1,2.6%,4,-3%,2%
CC1=NN(Cc2cc(C(C)(C)C)c(O)c(C(C)(C)C)c2)C(=O)C1,?,.,13%,1%
CC(=O)Nc1ccc(S(=O)(=O)NCCSCc2cccc(Cl)c2)cc1,0.4%,-4,8%,-6%
Cc1ccc(C(=O)NCc2ccc3c(c2)OCO3)cc1N1CCCC1=O,-3.3%,3,-1%,-16%
O=C(NCCN1CCN(c2ccccc2)CC1)Nc1cccc(Cl)c1,6.2%,.,4%,?
CCOc1ccc(NC(C)C(=O)N/N=C/c2ccc([N+](=O)[O-])cc2)cc1 (centres undefined),.,-4,1%,.
O=C(CN(c1ccccn1)S(=O)(=O)c1ccccc1)N/N=C/c1cccc([N+](=O)[O-])c1,-3.9%,3,-4%,-13%
O=[N+]([O-])c1ccc(S(=O)(=O)NN=CCCc2ccccc2)cc1,1.0%,.,.,4%
O=C(NC1CCN(C(=S)NCc2ccco2)CC1)C12CC3CC(CC(C3)C1)C2,-0.8%,-20,4%,-8%
O=C(O)C1=C(C(=O)O)C2C=CC1C2,0.4%,.,.,1%
O=C(NCCCN1CCCC1=O)NC1CCCCC1,3.3%,2,-1%,-2%
O=C(Nc1cccnc1)c1cc(-c2ccco2)on1,-0.2%,6,-2%,2%
Cc1nc2nc(CSc3ccc(Cl)cc3)cc(=O)n2[nH]1,3.9%,-11,-2%,2%
O=C(N/N=C/c1ccc2cccnc2c1)c1ccco1,-2.7%,-30,-17%,8%
C=CCN(C(=O)Nc1ccccc1)C1CC(=O)N(c2ccc(OC)cc2)C1=O (centres undefined),0.1%,1,-2%,4%
Cc1cccc(OCC(=O)Nc2nc3ccc([N+](=O)[O-])cc3s2)c1C,?,0,-7%,-4%
CC(C(=O)Nc1ccccc1)N(C)CCOc1ccccc1 (centres undefined),-4.4%,.,-7%,-15%
CC(C)=CC(=O)Nc1nc2ccc([N+](=O)[O-])cc2s1,0.2%,3,-17%,4%
CC(=O)c1ccc2c3c(cccc13)C(=O)N(c1c(C)nn(C)c1C)C2=O,-0.6%,-8,-19%,1%
Fc1ccccc1Cn1nnc2c(NCCc3ccccn3)ncnc21,-2.6%,-2,-18%,-5%
COc1ccc(NC(=O)c2cc(CN3C(=O)c4ccccc4C3=O)ccc2OC)cn1,0.3%,1,-8%,5%
CCCn1nnnc1NC(=O)COc1ccc(Cl)cc1C,1.6%,8,-2%,10%
CNC(=S)N(Cc1ccccc1)Cc1cccnc1,4.9%,1,-4%,?
O=C(O)Cn1cc(/C=C/[N+](=O)[O-])c2ccccc21,?,-17,3%,-4%
CCCc1nc(SCC(=O)Nc2cc(C)on2)c2c(=O)n(C)c(=O)n(C)c2n1,-1.0%,1,-3%,-1%
CCOc1ccc2c(c1)-c1c(ssc1=S)C(C)(C)N2C(=O)c1ccco1,0.0%,-11,3%,-2%
CCOC(=O)c1ccc2[nH]c3ccccc3c2c1,-0.6%,.,-44%,-13%
NC(=O)C1CCN(S(=O)(=O)c2cccc(S(=O)(=O)N3CCCCC3)c2)CC1,0.0%,-5,-1%,-3%
CN(c1ccccc1)S(=O)(=O)c1ccc2ccccc2c1,-2.8%,.,-8%,13%
Cc1cc(Cl)ccc1OCC(=O)NNC(=O)c1cccs1,-2.9%,.,.,2%
Cc1cc(C(=O)OCC(=O)c2ccc(Cl)c([N+](=O)[O-])c2)c2cccc(C)c2n1,-0.1%,-3,-5%,-6%
COc1ccc(NC(=O)CSc2ncc(-c3ccc(F)cc3)n2Cc2ccco2)cc1,-2.0%,-8,21%,0%
COC(=O)c1ccc(S(=O)(=O)NCc2ccccn2)n1C,-2.8%,0,-4%,-2%
